Bioassay records from PubChem BioAssay.
KCNK3 block: human KCNK3 channel inhibition, primary screen. CHO-KCNK3 thallium flux, FluxOR fluorescence; hits give low values. actives 0.84% (n = 340,000). B-score at 10 µM. AID 602410;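 active = B-score under library mean minus 4 SD, starting fluorescence ratio at most library mean plus 5 SD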;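 note: more negative B-score means stronger inhibition of thallium flux through KCNK3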
KCNQ1 block: inhibitors of human KCNQ1 potassium channel | P51787 | CHO-K1 KCNQ1, FluxOR thallium flux fluorescence; hits give high values | B-score at 10 µM | actives 1.3% (n = 310,000);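 active = compounds whose thallium flux B-score, printed positive for inhibition, exceeds three library SD while starting fluorescence stays within three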;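 note: channel opened by potassium depolarization with thallium stimulus after 20 min compound exposure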
RGS4 act: RGS4 potentiation or activation | B-score at 10 µM | actives 0.92% (n = 310,000) | HEK293 M3R/inducible RGS4, carbachol calcium flux Fluo4; hits give low values;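 active = B-score of the integrated calcium signal more than 4 SD below the library mean, with starting fluorescence not abnormally high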;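 note: negative B-score means reduced calcium response which marks RGS4 activation or potentiation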
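Test system: HEK293 cells with stable M3R and inducible RGS4; also added: carbachol at ECmax as muscarinic agonist stimulus; schedule: dye loading 30 min 37 °C, buffer rest 30 min RT; technique: kinetic calcium fluorescence imaging with Fluo4-AM dye, 2 µM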
KCNQ1 act: potentiates or activates the human KCNQ1 potassium channel | P51787 | CHO-K1 KCNQ1, thallium flux FluxOR fluorescence; hits give high values | B-score at 10 µM | actives 0.35% (n = 310,000) | AID 2648;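 active = fluorescence ratio B-score, a plate-corrected score, at least three library SD, with initial intensity B-score within 5 SD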
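Assay system: stable KCNQ1 CHO-K1 line; medium: assay buffer, equal DMSO in all wells; timing: 90 min dye loading and 20 min compound exposure, both at room temperature; technique: kinetic FluxOR thallium fluorescence, 10-s 1-Hz baseline, 110-s post-stimulus read; read-out basis: B score of baseline-normalized fluorescence ratio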
GSK3beta inhib: human GSK3beta kinase inhibition | P49841 | GST-GSK3beta kinase, ADP-Glo luminescence, 60 min; hits give low values | activity score (negative = inhibition), % at 10 µM | actives 0.038% (n = 300,000) | AID 2097;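 active = more than half of replicate wells score below -50%, meaning over 50% inhibition versus plate controls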;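 note: 0% = median DMSO wells and -100% = median GW8510 positive control wells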
Target sequence (P49841 whole entry, looked up): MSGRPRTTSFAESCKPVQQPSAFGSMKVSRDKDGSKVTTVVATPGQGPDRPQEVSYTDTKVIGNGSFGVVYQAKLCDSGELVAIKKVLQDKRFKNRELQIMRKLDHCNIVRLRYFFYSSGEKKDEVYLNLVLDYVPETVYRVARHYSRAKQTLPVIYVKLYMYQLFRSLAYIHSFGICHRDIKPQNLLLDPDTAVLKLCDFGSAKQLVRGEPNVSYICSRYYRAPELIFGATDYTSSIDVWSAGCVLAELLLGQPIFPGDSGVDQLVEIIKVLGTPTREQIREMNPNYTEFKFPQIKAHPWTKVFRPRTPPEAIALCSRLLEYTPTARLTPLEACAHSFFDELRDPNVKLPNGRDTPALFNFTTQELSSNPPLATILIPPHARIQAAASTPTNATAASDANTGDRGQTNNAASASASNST
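Assay system: GST-fused GSK3beta enzyme, cell-free / Medium: Tris pH 7.5 buffer with MgCl2, DTT, BSA, heparin / Also added: peptide substrate plus 25 µM ATP (final) / Compound: 10 µM single point / Timing: kinase reaction with compound 60 min at room temperature / Detection: ADP-Glo luminescence / Benchmarks: DMSO neutral wells and GW8510 at 20 µM as positive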
PolyA inh: blocks polyadenylation in yeast reporter cells | S. cerevisiae SKY197-pL101 polyadenylation reporter, beta-gal luminescence; efflux-impaired pdr1/pdr3 knockout yeast; score 100 = 6 SD above DMSO | calls only at 12 µM | actives 0.02% (n = 300,000) | AID 1875;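 active = lowest replicate activity score at least 50, where 100 means six control SD above control mean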;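 note: yeast exposed to compound for 9 h at 30 °C; higher score means more reporter readthrough which indicates perturbed polyadenylation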
hERG rescue: shields human hERG channel from block by proarrhythmic agents | activation (rescue from dofetilide block), less the hit threshold, % at 10 µM | CHO-hERG, FluxOR thallium flux, dofetilide IC70 present | actives 0.51% (n = 310,000) | Q12809;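 active = activation above the mean of controls blocked by dofetilide plus 5 SD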;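 note: thallium influx through hERG after potassium depolarization seen as dye fluorescence rise; in these data hits start at about 4.7%; inactives centre near -7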
GSK3A inh: human GSK-3 alpha kinase inhibition | P49840 | ADP-Glo luminescence, 60 min | inhibition, % at 10 µM | actives 0.1% (n = 320,000) | AID 2650;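 in the data active = inhibition above about 50%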;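 note: GST-tagged GSK-3 alpha with peptide substrate and 25 µM ATP; 0% = DMSO neutral wells and 100% = GW8510 positive control wells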
HDAC3 inhib: blocks human histone deacetylase 3; O15379; recombinant HDAC3, fluorogenic peptide/trypsin coupled, fluorescence; inhibition, % at 8.3 µM; actives 0.15% (n = 320,000); AID 2718; in the data active = inhibition above about 26%, passing the limit was not always enough
Target sequence (O15379 whole entry, looked up): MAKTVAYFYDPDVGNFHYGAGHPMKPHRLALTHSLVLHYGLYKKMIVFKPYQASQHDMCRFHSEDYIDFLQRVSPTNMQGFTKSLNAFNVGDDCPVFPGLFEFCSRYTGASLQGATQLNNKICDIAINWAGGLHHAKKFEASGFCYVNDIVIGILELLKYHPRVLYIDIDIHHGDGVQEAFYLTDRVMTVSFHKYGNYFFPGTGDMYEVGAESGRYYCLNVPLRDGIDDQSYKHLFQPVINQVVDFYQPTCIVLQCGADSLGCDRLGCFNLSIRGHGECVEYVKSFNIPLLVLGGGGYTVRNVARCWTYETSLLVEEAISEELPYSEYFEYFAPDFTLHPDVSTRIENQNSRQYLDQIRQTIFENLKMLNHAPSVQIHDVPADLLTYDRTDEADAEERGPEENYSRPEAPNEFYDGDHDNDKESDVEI
KCNK9 inh: blocks the human KCNK9 two-pore domain potassium channel | HEK293 KCNK9, FluxOR thallium flux fluorescence; hits give low values | B-score at 10 µM | actives 1.2% (n = 310,000) | Q9NPC2;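 active = ratio B-score over 3 SD below the library mean, with starting fluorescence within 5 SD of its mean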;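 note: negative B-score means less thallium flux so channel inhibition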
* = called active by the depositor; i = inactive; · = no result given. A portion of the library (hit frequency here may not be typical).

compound,KCNK3 block,KCNQ1 block,RGS4 act,KCNQ1 act,GSK3beta inhib,PolyA inh,hERG rescue,GSK3A inh,HDAC3 inhib,KCNK9 inh
CCn1nc(C(=O)NNS(=O)(=O)c2cc(/C=C/C(=O)O)cc(OC)c2OC)c2ccccc2c1=O,i,·,·,·,·,·,·,-2,-11,·
CCOC(=O)/C(C#N)=C(C)/C=C1\Sc2ccccc2N1CC,i,i,i,i,4,i,-5,0,2,i
COc1ccc(-c2ccc(OC)cc2)cc1,i,i,i,i,2,i,-6,-3,1,i
CCN1CCN(CC(=O)Nc2nc3ccc(C)cc3s2)CC1,i,i,i,i,3,i,-12,14,2,i
CC(C)=CCCC(C)CN1CCC(N2CCC(C(=O)N3CCCC3)CC2)CC1 (stereo not drawn),i,i,i,i,2,i,-10,4,5,i
O=C(/C=C/c1ccc(F)cc1)NCc1ccco1,i,i,i,i,-4,i,-2,0,1,i
c1cncc(C(c2nnnn2C2CCCC2)N2CCCC2)c1 (stereo not drawn),i,i,i,i,-2,i,-4,-1,-7,i
Cc1ccc(S(=O)(=O)N2CCCC2C(=O)Nn2cnnc2)cc1 (stereo not drawn),i,i,i,i,-3,i,-1,1,7,i
Cc1cccc(Cn2c(=O)n(Cc3ccco3)c(=O)c3ccccc32)c1,i,i,i,i,2,i,-4,-2,3,i
O=C(Nc1ccccc1Cl)c1ccccc1S(=O)(=O)c1ccccc1[N+](=O)[O-],i,i,i,i,5,i,-5,0,·,i
COc1cc(/C=C2\SC(=O)NC2=O)ccc1Oc1cnccn1,i,i,i,i,-2,i,-6,2,6,i
COc1ccc(/C=C2/S/C(=N/S(=O)(=O)Cc3ccccc3)NC2=O)cc1OC,i,i,i,i,-5,i,-19,-7,7,i
CCC(=O)N(CCC(c1ccccc1)c1ccco1)Cc1cccs1 (stereo not drawn),i,i,i,i,2,i,-11,-2,0,-14*
CCc1nc(-c2cc3ccc(C)cc3[nH]c2=O)no1,i,i,i,i,0,i,-14,1,-6,i
C=CCn1c(CCNC(=O)c2ccccc2F)nnc1SCC(=O)Nc1ccccc1F,i,i,i,i,0,i,-6,0,9,i
Fc1ccccc1-c1n[nH]c(=S)n1/N=C/c1c[nH]c2ccccc12,i,i,i,i,2,i,-6,34,23,i
NC(=O)c1csc(-c2ccncc2)n1,i,i,i,i,-3,i,-10,17,-4,i
CCOC(=O)[C@@H](C)N(Cc1ccc(OC)cc1)S(=O)(=O)N(Cc1ccccc1)[C@H](C(=O)OC)C(C)C,i,·,·,·,·,·,·,-2,4,·
O=C(COc1ccc2ccccc2c1)N/N=C/c1ccccn1,i,i,i,i,0,i,-15,10,8,i
CN(Cc1c(C(=O)N/N=C/c2cccc(O)c2)nnn1-c1nonc1N)C1CCCCC1,i,i,i,i,-30,i,-11,40,1,i
Cc1cc(-c2ccccc2)c2c3c(cn2n1)c(=O)n(C)c(=O)n3C,i,i,i,i,-2,i,-19,13,14,i
O=C1C2ON(c3ccc(Cl)cc3)C(c3ccco3)C2C(=O)N1c1ccccc1 (stereo not drawn),i,i,i,i,3,i,-7,-2,-8,i
CC(C)CC(=O)Nc1nc2ccc(S(C)(=O)=O)cc2s1,i,i,i,i,-2,i,-9,0,8,i
COc1ccccc1Oc1nnnn1-c1ccc(C(N)=O)cc1,i,i,i,i,-3,i,-12,-4,2,i
CCc1cc(-c2n[nH]c(C)c2-c2nc3ccccc3s2)c(O)cc1OCC(=O)NN,i,i,i,i,1,i,-10,8,2,i
COc1ccccc1C1/C(=C(/O)c2ccccc2)C(=O)C(=O)N1CC(C)O (stereo not drawn),i,i,i,i,-2,i,-5,0,3,i
COC(=O)/C=C/c1ccc(OC(=O)OC)c(OC(=O)OC)c1,i,i,i,i,-2,i,-3,-6,-1,i
O=C(Nc1cccc(-c2nc3ccccc3o2)c1)c1cccnc1,i,i,i,i,0,i,-15,-1,-1,i
CC1(C)C2CCC1(C)C(OC(=O)c1ccc(O)cc1)C2 (stereo not drawn),i,i,i,i,-12,i,-8,15,11,i
Nc1cccc2c1C(=O)N(C(=O)/C=C/c1cccc(Br)c1)C2=O,i,i,i,i,-5,i,-16,·,·,i
CCCc1cc2c(=O)c(-c3ccccn3)c(C)oc2cc1O,i,i,i,i,3,i,-3,-1,-16,i
O=C(NCc1ccco1)c1ccc2ccccc2n1,i,i,i,i,-4,i,-11,-1,-5,i
CC(C)n1cnc2c(Nc3cccc(Cl)c3)nc(N(CCO)CCCO)nc21,i,i,i,i,-11,i,-22,10,7,i
CC1CCN(c2ccccc2NC(=S)NC(=O)c2cccs2)CC1,i,i,i,14*,2,i,-2,·,4,i
CN(C)CCC(Oc1ccccc1OCc1ccccc1)c1ccccc1 (stereo not drawn),i,i,i,i,-3,i,-8,2,4,i
COc1ccccc1-n1c(-c2cc(-c3ccc(F)cc3)n[nH]2)n[nH]c1=S,i,i,i,i,0,i,-10,3,10,i
Cc1cc2c(cc1S(=O)(=O)N(C)c1ccccc1)NC(=O)CO2,i,i,i,i,1,i,-12,-8,2,i
COc1ccc(C2NC(=O)NC(C)=C2C(=O)OCc2ccc3c(c2)OCO3)cc1OC (stereo not drawn),i,i,i,i,-12,i,-4,42,0,i
O=C(NCCc1c[nH]c2ccccc12)c1ccc(S(=O)(=O)NCc2ccco2)cc1,i,i,i,i,-6,i,-13,0,-2,i
COc1ccc(C2SCC(C(=O)NCc3ccc(F)cc3)N2C(C)=O)cc1 (stereo not drawn),i,i,i,i,3,i,-6,0,4,i

Entries of single compounds, looked up by structure.
`O=C(NCCc1c[nH]c2ccccc12)c1ccc(S(=O)(=O)NCc2ccco2)cc1` reads KCNK3 block: i; KCNQ1 block: i; RGS4 act: i; KCNQ1 act: i; GSK3beta inhib: -6; PolyA inh: i; hERG rescue: -13; GSK3A inh: 0; HDAC3 inhib: -2; KCNK9 inh: i
`CC1CCN(c2ccccc2NC(=S)NC(=O)c2cccs2)CC1` reads KCNK3 block: i; KCNQ1 block: i; RGS4 act: i; KCNQ1 act: 14*; GSK3beta inhib: 2; PolyA inh: i; hERG rescue: -2; GSK3A inh: ·; HDAC3 inhib: 4; KCNK9 inh: i
`COc1ccccc1-n1c(-c2cc(-c3ccc(F)cc3)n[nH]2)n[nH]c1=S` reads KCNK3 block: i; KCNQ1 block: i; RGS4 act: i; KCNQ1 act: i; GSK3beta inhib: 0; PolyA inh: i; hERG rescue: -10; GSK3A inh: 3; HDAC3 inhib: 10; KCNK9 inh: i

The listing continues:
compound,KCNK3 block,KCNQ1 block,RGS4 act,KCNQ1 act,GSK3beta inhib,PolyA inh,hERG rescue,GSK3A inh,HDAC3 inhib,KCNK9 inh
NC(=O)c1oc2ccc(Cl)cc2c1N,i,i,i,i,4,i,-4,0,-83,i
COc1ccc2cc3cc(C(=O)NCCN4CCc5ccccc5C4)sc3nc2c1,i,i,i,i,-1,i,-8,6,-24,i
COc1ccc2c(c1)C(=NO)c1cc(OC)ccc1-2,i,i,i,i,2,i,-7,1,-8,i
Cc1cccc(/C=C2/Sc3ccc(C(=O)N4CCOCC4)cc3NC2=O)c1,i,i,i,i,0,i,-7,2,-6,i
CC(C)(C)Cc1nc(-c2ccccn2)no1,i,i,i,i,3,i,-4,5,0,i
Cc1sc2nc(CN3CCCC3)nc(N3CCC(C(N)=O)CC3)c2c1C,i,i,i,i,-2,i,-7,2,-3,i
CCCCN=CC1=C(O)C(C(=O)OC)C(C)(C)CC1=O (stereo not drawn),i,i,i,i,2,i,-4,1,-2,i
O=c1cc(C(F)F)oc2c1ccc1ccccc12,i,i,i,i,7,i,-4,-4,-1,i

As a working copy, three of the compounds above:
compound,KCNK3 block,KCNQ1 block,RGS4 act,KCNQ1 act,GSK3beta inhib,PolyA inh,hERG rescue,GSK3A inh,HDAC3 inhib,KCNK9 inh
NC(=O)c1oc2ccc(Cl)cc2c1N,i,i,i,i,4,i,-4,0,-83,i
COc1ccc2cc3cc(C(=O)NCCN4CCc5ccccc5C4)sc3nc2c1,i,i,i,i,-1,i,-8,6,-24,i
COc1ccc2c(c1)C(=NO)c1cc(OC)ccc1-2,i,i,i,i,2,i,-7,1,-8,i

Following part
compound,KCNK3 block,KCNQ1 block,RGS4 act,KCNQ1 act,GSK3beta inhib,PolyA inh,hERG rescue,GSK3A inh,HDAC3 inhib,KCNK9 inh
COc1ccc2c(c1)CCC1=C2NC(=S)NC1c1ccc(N(C)C)cc1 (stereo not drawn),i,i,i,i,-2,i,-14,1,9,i
COc1ccccc1OCc1nnc(SCC(=O)Nc2ccc(C)cc2)n1C,i,i,i,i,3,i,-6,-1,1,i
CCOc1ccc2nc(NC(=O)C(CC)Sc3nc(C)cc(=O)[nH]3)sc2c1 (stereo not drawn),i,i,i,i,5,i,-4,-1,5,i
CC(C)(O)C(=O)NN(C(=O)c1ccccc1)c1cccc(Br)c1,i,i,i,i,2,i,-6,-1,-1,i
CCOC(=O)C1(C(F)(F)F)N=C(N(C)C)OC(N(C)C)=N1,i,i,i,i,0,i,-13,0,-5,i
Cc1nc(N)nc(-c2ccccc2O)n1,i,i,i,i,0,i,0,4,7,i
COc1ccc2cc(-c3[nH]ncc3CN3C[C@@H]4CCC[C@H]3C4)ccc2c1,i,i,i,i,4,i,-23,4,3,i
COc1ccccc1C(C)Nc1nc(-c2cccnc2)nc2ccccc12 (stereo not drawn),-11*,i,-7.1*,i,-1,i,-16,2,3,i
c1ccc(CNc2ncnc3nc[nH]c23)nc1,i,i,i,i,6,i,-8,1,0,i
OCCNc1nc(Nc2cccc(O)c2)nc2ccccc12,i,i,i,i,2,i,-16,9,1,i
CC(C)=CCCC(C)CN1CCC(O)CC1 (stereo not drawn),i,i,i,i,-1,i,-7,-4,-6,i
COc1cccc(NC(=O)CSc2ccc3nnc(-c4ccncc4)n3n2)c1,i,i,i,i,-2,i,-9,3,-2,i
C=CCn1c(CCNC(=O)c2cccs2)nnc1SCC(=O)Nc1cccc(Cl)c1C,i,i,i,i,4,i,-7,0,-2,i
CS(=O)(=O)c1ccc(C(=O)OCC(=O)NC(=O)Cc2ccccc2)cc1,i,i,i,i,4,i,-7,0,-5,i
Cc1ccc(NC(=O)c2ccc(N/N=C/c3cccc(O)c3)c([N+](=O)[O-])c2)cc1,i,i,i,i,3,i,-4,2,-10,i
COc1cc2c(cc1OC)-c1cc(Nc3ccccc3Br)nc(=O)n1CC2,i,i,i,i,2,i,1,2,0,i
COc1ccccc1OCCCOc1ccc(/C=C2\SC(=O)NC2=O)cc1OC,i,i,-7.7*,i,-4,i,-19,-2,2,i
